WNV protease inh – WNV NS2B-NS3 proteinase inhibition | P06935 | WNV NS2B-NS3 protease, fluorogenic substrate Ex360/Em465; hits give low values | z-score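 (tested at a level between 10 and 100 µM)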 | actives 0.18% (n = 65,000) | AID 577;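 active = z-score at -3 or under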;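 also: score is relative to mean and spread of the compound wells of a plate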
Target sequence (P06935 1371-1501 limits assumed): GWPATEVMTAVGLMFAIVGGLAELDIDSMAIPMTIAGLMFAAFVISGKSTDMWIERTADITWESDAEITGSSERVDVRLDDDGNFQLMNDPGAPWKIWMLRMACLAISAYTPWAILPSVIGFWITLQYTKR
Target sequence (P06935 1502-1679 limits assumed): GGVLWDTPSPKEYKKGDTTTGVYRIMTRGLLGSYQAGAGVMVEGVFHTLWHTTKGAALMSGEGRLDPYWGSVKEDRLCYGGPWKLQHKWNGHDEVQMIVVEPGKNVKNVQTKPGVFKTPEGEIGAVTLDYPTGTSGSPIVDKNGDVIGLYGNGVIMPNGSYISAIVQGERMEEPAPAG
MT1-MMP promoter – MT1-MMP gene expression reporter suppression – cell-based, luciferase reporter, luminescence (AID 618). MT1-MMP promoter luciferase reporter cells, luminescence. calls from a first round at 10 µM; hits with a dose series show EC50 in µM. actives 0.62% (n = 87,000);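 active = over half of the reporter light lost at 10 µM or EC50 under 50 µM; inactive = the rest and hits that failed the dose series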;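 also: actives suppress MT1-MMP promoter-driven transcription so potencies describe inhibitors; HT1080 fibrosarcoma cells; overnight exposure; toxic or luciferase-blocking compounds were not removed from the actives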
Hsc70 ATP site – small molecules displacing fluorescent ligand from Hsc70 – biochemical, fluorescence polarization, primary screen (AID 568); Hsc70 fluorescence polarization, probe displacement; higher % means a stronger effect; strong numbers were not always called active; displacement, % at 20 µM; hits with a dose series show IC50 in µM; 83,000 tested, under 10 active;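 active = displacement above 50% without optical interference and an IC50 on retest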;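 also: ATPase domain with a fluorescein-tagged ATP probe; 0% = vehicle and 100% = excess ADP; read after one hour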
* marks the source's active call; other numbers are inactive results.

Screening Clc1ccccc1-c1nnc2sc(-c3ccc(Br)o3)nn12 returned WNV protease inh 2.3, MT1-MMP promoter inactive and Hsc70 ATP site -5.8%.
For CC(=O)N(CCN(C(C)=O)c1ccccc1)c1ccccc1 the results were WNV protease inh -1.2, MT1-MMP promoter inactive and Hsc70 ATP site 2.0%.
COCCn1c(COc2cccc(OC)c2)nnc1SCC(=O)N1CCOCC1 was read as WNV protease inh -0.13, MT1-MMP promoter inactive and Hsc70 ATP site -0.6%.
For Cc1cccc(-c2nc(CS(=O)CC(=O)NC3CCCC3)c(C)o2)c1 (stereo not given) the results were WNV protease inh 0.41, MT1-MMP promoter inactive and Hsc70 ATP site 4.0%.
COCn1c(COc2ccc3ccccc3c2)nc2ccccc21 was read as MT1-MMP promoter inactive and Hsc70 ATP site 5.0%.
Screening O=C(CN(Cc1ccccc1F)C(=O)Cn1nnc(-c2cccs2)n1)NCC1CCCO1 (stereo not given) returned WNV protease inh 0.96, MT1-MMP promoter inactive and Hsc70 ATP site -10%.
Screening COc1cccc(C(=O)Nc2cccc(SC)c2)c1 returned WNV protease inh -0.81, MT1-MMP promoter inactive and Hsc70 ATP site 3.9%.
CC(C)C(c1nnnn1C1CCCCC1)N1CCN(c2ncccn2)CC1 (stereo not given) was read as WNV protease inh -0.34, MT1-MMP promoter inactive and Hsc70 ATP site -5.1%.
`O=C(Cn1cnc2c(cnn2-c2ccccc2)c1=O)NCCc1ccccc1` gave WNV protease inh 0.06, MT1-MMP promoter inactive and Hsc70 ATP site 0.8%.
Screening Cc1ccc(-c2nnn(CC(=O)Nc3ccccc3-c3ccccc3)n2)c(-n2cnnn2)c1 returned WNV protease inh -0.49, MT1-MMP promoter inactive and Hsc70 ATP site -1.2%.
`O=C(Nc1ccccn1)c1ccc2ccccc2n1` gave WNV protease inh 2, MT1-MMP promoter inactive and Hsc70 ATP site -5.6%.
Screening O=c1cc(-c2ccccc2)nc(N2CCCCC2)[nH]1 returned WNV protease inh 0.66, MT1-MMP promoter inactive and Hsc70 ATP site -0.2%.

Next section, starting with the last two of the part before.
`O=C(Nc1ccccn1)c1ccc2ccccc2n1` gave WNV protease inh 2, MT1-MMP promoter inactive and Hsc70 ATP site -5.6%.
Screening O=c1cc(-c2ccccc2)nc(N2CCCCC2)[nH]1 returned WNV protease inh 0.66, MT1-MMP promoter inactive and Hsc70 ATP site -0.2%.
C#CCSc1nccc(-c2nn(-c3ccc(C)cc3)ccc2=O)n1 was read as MT1-MMP promoter inactive and Hsc70 ATP site -3.1%.
`C=CCn1c(CC(=O)OC)csc1=Nc1ccc(C(C)=O)cc1` gave WNV protease inh -1.6, MT1-MMP promoter inactive and Hsc70 ATP site -2.6%.
For COc1ccc(N(CC(=O)Nc2cccc(SC)c2)S(C)(=O)=O)cc1Cl the results were WNV protease inh -0.15, MT1-MMP promoter inactive and Hsc70 ATP site 3.0%.
C=CCOc1ccc(Cl)cc1C(=O)O was read as WNV protease inh -0.57, MT1-MMP promoter inactive and Hsc70 ATP site 6.3%.
COCCCN1C(=O)C(=O)/C(=C(/O)c2ccc(OC(C)C)cc2)C1c1cccnc1 (stereo not given) was read as WNV protease inh -1.1, MT1-MMP promoter inactive and Hsc70 ATP site -3.6%.
`Cc1ccc(NC(=O)Cn2nc(C(F)(F)F)c3c2CCC3)cc1` gave MT1-MMP promoter inactive and Hsc70 ATP site -1.5%.
CSc1nc2nc3c(cn2n1)C(=O)CC(c1ccccc1)C3 (stereo not given) was read as MT1-MMP promoter inactive and Hsc70 ATP site -2.7%.
O=C(Nc1cccc(C(=O)N2CCCC2)c1)c1ccccc1Cl was read as MT1-MMP promoter inactive and Hsc70 ATP site 8.3%.
Screening CC(=O)OC1COC(n2ccc3cc([N+](=O)[O-])ccc32)C(OC(C)=O)C1OC(C)=O (stereo not given) returned MT1-MMP promoter inactive and Hsc70 ATP site -0.5%.
NC(=O)c1ccccc1NS(=O)(=O)c1cccs1 was read as WNV protease inh -0.99, MT1-MMP promoter inactive and Hsc70 ATP site -0.2%.
`COC(=O)c1ccc(CSc2nc3c(c(=O)n2-c2ccc(F)cc2)SCC3)o1` gave MT1-MMP promoter inactive and Hsc70 ATP site 6.5%.
`Cc1cn2c(nc1=O)OC1C(O)C(COC(=O)c3ccccc3)OC12` (stereo not given) gave WNV protease inh -0.73, MT1-MMP promoter inactive and Hsc70 ATP site -0.5%.
Cc1ccccc1CSc1nnc(C)n1N was read as WNV protease inh 0.21, MT1-MMP promoter inactive and Hsc70 ATP site -5.7%.
Screening N#CCCN1CCN(S(=O)(=O)c2ccc(S(=O)(=O)N3CCOCC3)cc2)CC1 returned WNV protease inh -0.11, MT1-MMP promoter inactive and Hsc70 ATP site -0.8%.
CCN1CCN(Cc2ccc(NC(=O)Nc3ccc(SC)cc3)cc2)CC1 was read as WNV protease inh -0.4, MT1-MMP promoter inactive and Hsc70 ATP site 2.9%.
`CCSc1ncc(C#N)c(N)n1` gave MT1-MMP promoter inactive and Hsc70 ATP site 0.4%.
`CS(=O)(=O)N1CCCC(C(=O)N2CCOCC2)C1` (stereo not given) gave WNV protease inh 0.36, MT1-MMP promoter inactive and Hsc70 ATP site -2.1%.
Cc1ccc(CC2CC(=O)N(CCc3ccc4c(c3)OCO4)C2=O)cc1 (stereo not given) was read as WNV protease inh 1.1, MT1-MMP promoter inactive and Hsc70 ATP site -3.7%.
Screening CC(N=c1ccccn1C(=O)Nc1ccc(Cl)cc1)c1ccco1 (stereo not given) returned WNV protease inh 0.19, MT1-MMP promoter inactive and Hsc70 ATP site -0.7%.
Screening CC(C)c1cc(NCC2CCCO2)n2c(nc3ccccc32)c1C#N (stereo not given) returned MT1-MMP promoter inactive and Hsc70 ATP site 5.1%.
COC1(OC)C(/C=C/c2ccc(Cl)cc2)C(C#N)(C#N)C1(OC)OC (stereo not given) was read as MT1-MMP promoter inactive and Hsc70 ATP site 4.9%.
For O=C(CN1CCN(C(=O)c2cccs2)CC1)NC1CCCCC1 the results were WNV protease inh 0.0097, MT1-MMP promoter inactive and Hsc70 ATP site 2.2%.
For CCCCC(=O)Nc1cccc2c1C(=O)N(c1ccccc1)C2=O the results were WNV protease inh -0.97, MT1-MMP promoter inactive and Hsc70 ATP site 7.7%.
For CN(CC(=O)NCC1CCCO1)S(=O)(=O)c1cc(Cl)ccc1Cl (stereo not given) the results were WNV protease inh -0.2, MT1-MMP promoter inactive and Hsc70 ATP site -4.3%.
Screening O=C(NCc1ccco1)c1ccc2c(=O)n(CC3CCCO3)c(=S)[nH]c2c1 (stereo not given) returned WNV protease inh -0.29, MT1-MMP promoter inactive and Hsc70 ATP site 0.8%.
`Cc1nc2ccccc2c(=O)n1NC(=O)Nc1ccccc1` gave WNV protease inh -0.18, MT1-MMP promoter inactive and Hsc70 ATP site 8.0%.
Cn1nc(-c2ccccc2)c(-c2nc(-c3ccc(Cl)cc3)no2)c1Cl was read as MT1-MMP promoter inactive and Hsc70 ATP site -2.2%.
`Cc1ccc(N(CC(=O)N2CCN(c3ccc(F)cc3)CC2)S(=O)(=O)c2c(C)nn(C)c2C)cc1` gave WNV protease inh 0.81, MT1-MMP promoter inactive and Hsc70 ATP site -4.3%.
Screening Cc1ccc2oc(=O)n(CCCOc3ccccc3)c2c1 returned WNV protease inh -0.58, MT1-MMP promoter inactive and Hsc70 ATP site 0.7%.
CCOC(=O)Cn1cc(C(=O)OC)c2ccccc21 was read as WNV protease inh 0.93, MT1-MMP promoter inactive and Hsc70 ATP site -6.6%.
CCOC(=O)c1ccccc1NC(=O)CSc1nnc(Cc2cccn2C)n1-c1ccc(C)cc1 was read as WNV protease inh -0.95, MT1-MMP promoter inactive and Hsc70 ATP site 0.6%.
O=c1c2ccccc2nc2n1CCCCC2 was read as WNV protease inh -0.83, MT1-MMP promoter inactive and Hsc70 ATP site 3.2%.
For CCS(=O)(=O)N1CCC(C(=O)NCCCOC)CC1 the results were WNV protease inh -0.98, MT1-MMP promoter inactive and Hsc70 ATP site 0.9%.
`CCCCOc1ccc(CSc2ncn[nH]2)cc1` gave WNV protease inh 0.32, MT1-MMP promoter inactive and Hsc70 ATP site 3.8%.
O=C(NC1CCCCC1)N(Cc1cc2cc3c(cc2[nH]c1=O)OCCO3)C1CCCCC1 was read as MT1-MMP promoter inactive and Hsc70 ATP site 8.0%.
Screening NC(=O)c1cc2nc(-c3ccco3)cc(C(F)(F)F)n2n1 returned MT1-MMP promoter inactive and Hsc70 ATP site 4.1%.
For CCCc1[nH]n(-c2nc3ccccc3s2)c(=O)c1C=NCC(C)C the results were MT1-MMP promoter inactive and Hsc70 ATP site 7.3%.
For CC1CCCC/C1=N/Nc1ccc([N+](=O)[O-])cc1[N+](=O)[O-] (stereo not given) the results were MT1-MMP promoter inactive and Hsc70 ATP site 1.7%.
`CC1CCN(S(=O)(=O)c2ccc(NC(=O)CSc3ncccc3C(=O)O)cc2)CC1` gave WNV protease inh 0.46, MT1-MMP promoter inactive and Hsc70 ATP site 5.0%.
Cc1ccc2c(c1)nnn2C1CCN(S(C)(=O)=O)CC1 was read as WNV protease inh -0.29, MT1-MMP promoter inactive and Hsc70 ATP site -5.1%.
`COCCCN1Cc2cccc(C(=O)O)c2C1=O` gave WNV protease inh -1.2, MT1-MMP promoter inactive and Hsc70 ATP site -0.5%.
CCOc1cc2[nH]c(=O)n(CC3CCC(C(=O)NC4CCCCC4)CC3)c(=O)c2cc1OCC (stereo not given) was read as WNV protease inh -1.1, MT1-MMP promoter inactive and Hsc70 ATP site -2.3%.
`CC(CC1C(C#N)=C(N)OC2=C1C(=O)CCC2)c1ccccc1` (stereo not given) gave WNV protease inh -0.52, MT1-MMP promoter inactive and Hsc70 ATP site 2.8%.
Screening CCCCNC(=O)c1ccc2c(c1)N(CC)C(=O)CS2 returned WNV protease inh -0.7, MT1-MMP promoter inactive and Hsc70 ATP site -1.2%.
CCOc1ccc2nc(NC(=O)Nc3ccccc3)sc2c1 was read as MT1-MMP promoter inactive and Hsc70 ATP site -8.8%.
Screening CCOc1ccc(C(=O)N2CCCC2C(=O)O)cc1 (stereo not given) returned WNV protease inh -0.1, MT1-MMP promoter inactive and Hsc70 ATP site 4.7%.
`COC(=O)c1cc(OC)c(OC)cc1NC(=O)c1ccc(Br)o1` gave WNV protease inh -0.65, MT1-MMP promoter inactive and Hsc70 ATP site -1.2%.
Screening COC(=O)C(C)Oc1ccc2c3c(c(=O)oc2c1)CCCCC3 (stereo not given) returned WNV protease inh 0.09, MT1-MMP promoter inactive and Hsc70 ATP site -6.6%.
For CCN(CC)S(=O)(=O)c1cccc(-c2nnc(SCc3nc4ccccc4s3)o2)c1 the results were MT1-MMP promoter inactive and Hsc70 ATP site -9.1%.
O=S(=O)(NCC1CCN(S(=O)(=O)c2ccccc2)CC1)c1ccccc1 was read as WNV protease inh 0.34, MT1-MMP promoter inactive and Hsc70 ATP site -1.6%.
Screening CO/N=C/C(=N\Nc1ccc(C)cc1)C(=O)c1ccc(OC)cc1 returned MT1-MMP promoter inactive and Hsc70 ATP site 5.5%.
CCCc1[nH]nc2c1C(c1ccc(Br)s1)C(C#N)=C(N)O2 (stereo not given) was read as WNV protease inh -0.55, MT1-MMP promoter inactive and Hsc70 ATP site 3.2%.
For O=C(CSc1nnnn1-c1ccccc1)NCc1ccco1 the results were MT1-MMP promoter inactive and Hsc70 ATP site -6.5%.
`COCCn1nnnc1C(c1ccc(O)c(OC)c1)N1CCc2ccccc2C1` (stereo not given) gave WNV protease inh -1.1, MT1-MMP promoter inactive and Hsc70 ATP site 1.0%.
Screening COc1ccccc1OCC(=O)NCCNC(=O)COc1ccccc1OC returned WNV protease inh -0.16, MT1-MMP promoter inactive and Hsc70 ATP site 2.9%.
`Cc1cc(=O)oc(C)c1C(=O)NCCC(C)C` gave WNV protease inh -0.49, MT1-MMP promoter inactive and Hsc70 ATP site 2.0%.
CCC(C)(C)n1nnnc1C(c1ccncc1)N1CCC(Cc2ccccc2)CC1 (stereo not given) was read as MT1-MMP promoter inactive and Hsc70 ATP site 1.1%.
Screening CCOC(=O)Nc1ccc(S(=O)(=O)N2CCOCC2)cc1 returned WNV protease inh -0.68, MT1-MMP promoter inactive and Hsc70 ATP site -0.5%.

Among those listed so far, eight contain a Cl atom:
Screening Clc1ccccc1-c1nnc2sc(-c3ccc(Br)o3)nn12 returned WNV protease inh 2.3, MT1-MMP promoter inactive and Hsc70 ATP site -5.8%.
For COc1ccc(N(CC(=O)Nc2cccc(SC)c2)S(C)(=O)=O)cc1Cl the results were WNV protease inh -0.15, MT1-MMP promoter inactive and Hsc70 ATP site 3.0%.
C=CCOc1ccc(Cl)cc1C(=O)O was read as WNV protease inh -0.57, MT1-MMP promoter inactive and Hsc70 ATP site 6.3%.
O=C(Nc1cccc(C(=O)N2CCCC2)c1)c1ccccc1Cl was read as MT1-MMP promoter inactive and Hsc70 ATP site 8.3%.
Screening CC(N=c1ccccn1C(=O)Nc1ccc(Cl)cc1)c1ccco1 (stereo not given) returned WNV protease inh 0.19, MT1-MMP promoter inactive and Hsc70 ATP site -0.7%.
COC1(OC)C(/C=C/c2ccc(Cl)cc2)C(C#N)(C#N)C1(OC)OC (stereo not given) was read as MT1-MMP promoter inactive and Hsc70 ATP site 4.9%.
For CN(CC(=O)NCC1CCCO1)S(=O)(=O)c1cc(Cl)ccc1Cl (stereo not given) the results were WNV protease inh -0.2, MT1-MMP promoter inactive and Hsc70 ATP site -4.3%.
Cn1nc(-c2ccccc2)c(-c2nc(-c3ccc(Cl)cc3)no2)c1Cl was read as MT1-MMP promoter inactive and Hsc70 ATP site -2.2%.
